High-throughput results as filed in PubChem BioAssay.
Ecoli growth – E. coli growth inhibition. Escherichia coli growth, OD600, 23 h; hits give low values. OD600 absorbance (no concentration beside the values). 0.21% of 330,000 active. AID 1053175;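 active = OD600 absorbance below the run mean of sample wells minus 3.6 SD, in any replicate, cut at about 0.56 in these data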;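 also: stock transfer was 300 nL into about 60 µL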
HNF4A DNA FP – change in binding of human HNF4 alpha to DNA; P41235; HNF4a-FITC DNA binding, fluorescence polarization, 1 h; activity change, % at 10 µM; 0.3% of 360,000 active; AID 1224865; in the data active = activity change above about 30%, passing the limit was not always enough;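 also: controls were the assay level and a saturating level of protein; the project sought stronger binding though the title names inhibitors; some compounds called inactive have numbers as strong as hits; positive values seem to mean higher polarization but the record does not say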
B2AR ag – activates human beta-2 adrenergic receptor causing internalization; response, % (test concentration not listed); 0.43% of 340,000 active; Am2.2-beta2AR cells, FAP receptor internalization, flow cytometry; reference of the scale not given here; P07550; AID 504454;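 active = response above a set limit, near 3 SD of response in nonfluorescent compounds, cut at about 42% in these data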;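 also: stock transfer was 100 nL into about 11 µL; a reference agonist was the positive control; negative values mostly stem from fluorescent compounds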
Target sequence (P07550 whole entry, looked up): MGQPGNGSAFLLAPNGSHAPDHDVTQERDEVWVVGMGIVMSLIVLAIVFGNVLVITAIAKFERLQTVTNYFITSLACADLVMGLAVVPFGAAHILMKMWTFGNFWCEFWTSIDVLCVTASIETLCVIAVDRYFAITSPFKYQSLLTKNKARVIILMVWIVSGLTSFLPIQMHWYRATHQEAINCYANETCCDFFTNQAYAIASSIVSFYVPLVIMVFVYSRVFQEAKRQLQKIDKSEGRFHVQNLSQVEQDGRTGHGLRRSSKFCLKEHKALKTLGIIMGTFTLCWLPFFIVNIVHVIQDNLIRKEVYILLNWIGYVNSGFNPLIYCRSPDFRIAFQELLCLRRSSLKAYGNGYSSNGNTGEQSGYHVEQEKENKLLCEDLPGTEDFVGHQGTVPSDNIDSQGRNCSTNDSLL
LANA-H2B inh – blocks KSHV LANA binding to histone H2A/H2B; cell-free LANA-H2A/H2B peptide, fluorescence polarization; inhibition, % (no concentration beside the values); 0.6% of 320,000 active; AID 2629; in the data active = inhibition mostly above about 10%, no sharp cut-off; inactive = mostly below about 6.7%;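 also: stock transfer was 7.5 nL into about 10 µL; 0% = median of vehicle wells and 100% = median of positive control wells; one replicate is shown; the record names a cut of 25% in any replicate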
ALR H2O2 inh – inhibitors of human sulfhydryl oxidase ALR; purified ALR, DTT oxidation, H2O2 HRP-luminol luminescence; inhibition, % (test concentration not listed); 3.8% of 290,000 active; AID 485317;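 active = mean and each replicate at 75% or more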;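 also: stock transfer was 7.5 nL into about 7.5 µL; 0% = neutral wells and 100% = wells with inactivated enzyme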
Target sequence (P55789 whole entry, looked up): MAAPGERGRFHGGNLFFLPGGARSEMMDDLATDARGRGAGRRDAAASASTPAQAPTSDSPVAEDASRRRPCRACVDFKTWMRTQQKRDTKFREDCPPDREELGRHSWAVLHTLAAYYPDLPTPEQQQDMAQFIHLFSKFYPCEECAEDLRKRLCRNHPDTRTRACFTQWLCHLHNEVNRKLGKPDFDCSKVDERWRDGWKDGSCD
UCH37 DUB inh – inhibitors of human deubiquitinating enzyme UCH37; Q9Y5K5; purified proteasome/UCH37, Ub-AMC cleavage fluorescence; inhibition, % (test concentration not listed); 0.33% of 330,000 active;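 active = mean of two replicates above 20%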;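 also: 0% = compound-free wells with enzyme and 100% = wells lacking proteasome; stock transfer was 100 nL into about 20 µL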
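Material: Human UCH37 enzyme supplied as purified proteasome complex | Schedule: 30 min compound-proteasome preincubation then 25 min substrate reaction, room temperature | Detection: AMC fluorescence from Ub-AMC cleavage, excitation 355 nm, emission 460 nm | Benchmarks: Wells without proteasome as full block, compound-free enzyme plus substrate as uninhibited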
FGF22 binding – FGF22 (human) thermal shift binding | AID 651658 | recombinant FGF22 thermal shift, SYPRO orange fluorescence; percent of sucrose octasulfate shift, DMSO zero | Q9HCT0 | 1.5% of 340,000 active | calls only at 9.99 µM;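 active = melting point raised past a set limit in the mean and every replicate; three in four hits are not shown here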
Target sequence (Q9HCT0 whole entry, looked up): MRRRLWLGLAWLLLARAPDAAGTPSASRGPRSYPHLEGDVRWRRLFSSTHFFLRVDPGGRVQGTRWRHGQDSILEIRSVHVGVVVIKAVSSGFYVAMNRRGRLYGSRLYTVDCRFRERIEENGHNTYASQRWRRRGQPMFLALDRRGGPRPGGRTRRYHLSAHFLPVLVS
* = called active by the depositor; i = inactive; . = no result given; + = active, no number. These rows are one share of the data. The share of hits here may be higher or lower than overall.

canonical_smiles	Ecoli growth	HNF4A DNA FP	B2AR ag	LANA-H2B inh	ALR H2O2 inh	UCH37 DUB inh	FGF22 binding
CC(C)c1ccc(-n2c(O)c(/C=N/NC(=O)c3ccccc3O)c(=O)[nH]c2=S)cc1	0.72	9.2	2	-0.9	73	-27	+
COC(=O)CNC(=O)c1cn(CCC#N)nc1-c1ccc(F)cc1	0.69	4.2	4	1.3	-39	4.7	i
O=C(Nc1ccc(Cl)cc1C(=O)c1ccccc1Cl)c1ccco1	0.76	0.8	0	-2.5	6	-0.3	.
Cc1nc2ccccc2c(=O)n1-c1ccc(Br)cn1	0.67	0.3	3	-0.7	-3	3.4	i
C/C=C1/CN2C3CC1C(CO)(C(=O)OC)C2Cc1c3n(C)c2ccccc12 (stereo not given)	0.73	3.5	-1	1.2	-22	-1.3	i
CC(C)(Cl)[N+](=O)[O-]	0.67	-0.8	-6	-30	5	2.9	i
CN1CCN2c3ccccc3CC3(C(=O)N(C)C(=O)N(C)C3=O)C2C1 (stereo not given)	0.69	9.6	0	-0.5	45	3.0	i
Cc1ccsc1C(=O)C1CCCN(Cc2cnn(C(C)C)c2)C1 (stereo not given)	0.67	-1.2	4	-3.0	-4	0.3	.
CCC(c1ccc(C)cc1)N1C(=O)C2C3CCC(O3)C2C1=O (stereo not given)	0.65	-2.0	15	.	-3	0.7	i
CCOc1ccccc1CNCCc1ccc2c(c1)OCO2	0.63	0.6	0	-2.6	.	1.4	i
C[C@]12CC[C@H]3C(CCC4(O)CC(O)CC[C@]34C=O)C1=CC[C@H]2c1ccc(=O)oc1 (stereo not given in full)	0.62	0.9	38	8.6	-22	3.3	i
c1ccc(CN2CCc3nc4ccccc4cc3C2)cc1	0.66	-1.4	11	6.3	.	3.1	i
CS(=O)(=O)NCc1nnc2n1-c1ccc(Cl)cc1C(c1ccccc1)=NC2	0.71	0.5	-16	-0.2	-17	-0.3	.
C/C(=N\N=C(N)N)c1ccccc1	.	4.5	-6	10	3	.	i
COc1ccc(N=Cc2c(O)n(C)c(=O)n(C)c2=O)cc1	0.61	1.2	-9	1.0	1	10	i
CN(C)c1ccc(C=C(C#N)C#N)cc1	0.68	-0.7	6	-1.1	32	9.1	.
CCN1CCN(C(c2cccs2)C(C)NC(=O)Oc2ccccc2)CC1 (stereo not given)	0.79	2.7	14	-0.4	0	6.4	i
CC(=NCC1CCCO1)c1c(O)n(-c2ccccc2)c(=O)[nH]c1=O (stereo not given)	0.7	3.8	-6	1.6	-4	2.5	.
O=C(Cn1nc(-c2ccc(Cl)cc2)ccc1=O)N1CCC2(CC1)OCCO2	0.71	-0.2	-6	-0.6	4	-2.9	i
CCCC(C)n1[nH]c(=O)c2c1NC(=O)CSC2c1ccc(OC)cc1 (stereo not given)	0.67	-0.4	0	4.4	0	20*	.
CC12CN3CCN(C1)CC(C)(C3)C2=NN	0.68	0.8	2	2.0	.	0.0	i
Cc1cc(O)c2c3c(c(=O)oc2c1)CCC(C)C3 (stereo not given)	0.62	-2.4	10	-1.3	-5	0.1	i
CCOP(=O)(OCC)C(O)c1ccc2c(c1)OCO2 (stereo not given)	0.62	2.0	-5	3.4	-3	1.0	i
COc1ccc(C(=O)C2CCCN(C3CSCCSC3)C2)cc1OC (stereo not given)	0.7	-0.6	-4	-0.6	-6	2.0	i
c1ccc(CNC2CCCCCCC2)cc1 (tested in a mixture with another compound)	.	-4.2	10	.	.	.	i
O=C(Nc1ccccc1)N1CCC2(CC1)OCCO2	0.71	3.2	3	3.7	-14	1.2	i
CC(=O)OC1C2CCC1C(N1CCCCC1)CC2 (stereo not given)	0.69	-2.9	0	3.2	-5	1.6	i
CCOP(=S)(OCC)SCCSCC	0.68	-4.1	-1	3.2	-6	2.1	i
COc1ccccc1OP(=O)(Nc1ccc(Br)cc1)Oc1ccccc1OC	0.64	-0.4	15	3.3	.	3.6	i
c1ccc2sc(N3CCNCC3)nc2c1	0.7	-0.5	-1	1.0	12	-0.7	i
COc1ccc(-n2c(CNCCc3ccc(C)cc3)nc3ccccc3c2=O)cc1	0.66	-0.8	-7	1.6	39	5.6	i
Cc1ccccc1C(=O)NC(Oc1ccccc1)C(Cl)(Cl)Cl (stereo not given)	0.71	4.1	12	-0.3	2	2.2	.
CCc1ccc(N2C(=O)CC(=O)NC2=O)cc1	0.69	0.0	0	-0.2	2	1.6	i
Cc1ccc(N=Nc2c(O)[nH]c(=O)[nH]c2=O)c([N+](=O)[O-])c1	0.67	3.0	-5	-2.0	-4	10.0	.
CCOc1ccc(-c2c(C)n(-c3ccc(OCC)cc3)c3[n+]2CCCCC3)cc1	0.62	2.7	10	1.7	-12	-1.6	i
OCC[n+]1c2ccccc2nc2ccc(N3CCOCC3)cc21	0.68	0.4	2	-2.0	-19	7.2	i
COC(=O)C1=C(c2ccc(F)cc2OCc2ccccc2)C[C@@H]2CC[C@H]1N2C(=O)NCCOc1ccccc1	.	6.9	11	-2.8	-3	-0.2	i
CC1=CC(=C2C(=O)NC(=O)NC2=O)C=C(C(F)(F)F)N1C(C)C	0.66	1.9	-4	-5.2	2	14	.
CCOC(=O)C(O)(c1ccc(N(CC)S(=O)(=O)c2ccc(C)cc2)cc1)C(F)(F)F (stereo not given)	0.65	-4.8	6	2.1	-5	0.4	.
COC(=O)C1=C(c2c(C)noc2C)C[C@@H]2CC[C@H]1N2C(=O)NCc1ccco1	.	-2.8	1	-2.3	5	0.3	i
COc1ccc(-[n+]2c(-c3ccccc3)cc(-c3ccc(C)cc3)cc2-c2ccccc2)cc1	.	-4.9	1	3.3	.	.	i
C=CCn1c(O)c(C(C)=NCCCN(C)C)c(=O)[nH]c1=O	0.64	5.4	0	0.8	11	3.3	i
COc1ccc(N2C(=O)NC(=O)C(CCc3ccncc3)(CCc3ccncc3)C2=O)cc1	0.67	-0.6	2	-3.4	-9	6.1	.
CCCC(=O)OCC[N+](C)(C)C	0.72	4.7	-1	20*	-14	0.1	i
CCCC12CN3CCN(C1)CC(CCC)(C3)C2=O	0.69	0.8	5	0.4	.	2.4	i
CCCCCCC(=O)N/N=C/c1c(O)n(C(C)CC)c(=S)[nH]c1=O (stereo not given)	0.63	3.4	0	-0.8	17	3.5	i
CCN(CCCl)c1cc(CN(C)C)cc(NC(=O)c2ccc(C(=O)Nc3cc(CN(C)C)cc(N(CC)CCCl)c3)cc2)c1	.	4.2	47*	.	.	.	i
Cc1cccc(OP(=O)(Oc2cccc(C)c2)OC(c2ccccc2)C(F)(F)F)c1 (stereo not given)	0.66	-5.2	4	1.3	-5	-0.6	.
O=C1C(Cl)=CC(=Nc2ccc(O)cc2)C=C1Cl	0.64	2.3	-5	0.1	99*	1.9	i
CC(C)CCNC(=O)c1cc(C(=O)c2cc(Br)ccc2O)cn(CCC(C)C)c1=O	0.71	7.0	16	-0.9	-8	1.3	i

Overlap with the part before: 3 entries; new compounds follow.
canonical_smiles	Ecoli growth	HNF4A DNA FP	B2AR ag	LANA-H2B inh	ALR H2O2 inh	UCH37 DUB inh	FGF22 binding
Cc1cccc(OP(=O)(Oc2cccc(C)c2)OC(c2ccccc2)C(F)(F)F)c1 (stereo not given)	0.66	-5.2	4	1.3	-5	-0.6	.
O=C1C(Cl)=CC(=Nc2ccc(O)cc2)C=C1Cl	0.64	2.3	-5	0.1	99*	1.9	i
CC(C)CCNC(=O)c1cc(C(=O)c2cc(Br)ccc2O)cn(CCC(C)C)c1=O	0.71	7.0	16	-0.9	-8	1.3	i
CCOP(=O)(OCC)C(O)c1ccccc1 (stereo not given)	0.59	-2.1	0	1.9	.	2.6	i
NC1CCc2cc(O)c(O)cc2C1 (stereo not given)	0.7	0.9	-2	-0.6	.	0.6	i
CCC1(C)OC(c2ccccc2)=C/C(=C/C=C2C(=O)NC(=O)NC2=O)O1 (stereo not given)	0.74	180	0	.	.	10	i
CCOP(=O)(OCC)C(NC(=O)c1ccccc1)=C(Cl)Cl	0.67	-3.3	0	-5.3	0	-0.6	i
Cc1nc2c(C(=O)N3CCC4(CC3)OCCO4)cnn2c(C)c1Cc1cccc(Cl)c1	0.72	1.9	-4	0.4	3	-45	i
CC(Cc1ccccc1)N1Cc2ccccc2C1 (stereo not given)	0.67	0.1	-2	-0.4	5	4.3	.
O=C(COC(=O)Cc1ccccc1)NNC(=O)c1ccc([N+](=O)[O-])cc1	0.67	3.7	-4	-3.9	-3	3.4	i
c1ccc(CC2CCCCN2)cc1 (stereo not given)	0.69	-2.2	3	-0.8	-33	-0.2	i
COC(=O)C1=C(c2ccc(C(C)=O)cc2)C[C@@H]2CC[C@H]1N2C(=O)NCc1ccc(C(F)(F)F)cc1	0.77	2.7	-5	-2.0	3	0.9	.
COc1ccc(OC(=O)N(C)C)c(CN(C)C)c1	0.74	1.4	6	3.1	-14	3.2	.
COC(=O)C1=C(c2ccccc2OCc2ccccc2)C[C@@H]2CC[C@H]1N2C(=O)NCc1ccc(C(F)(F)F)cc1	0.84	3.6	6	2.1	-17	-60	i
O=S(=O)(c1ccc(Cl)cc1)N1CN2CCN(C2)C1	0.7	0.1	1	-5.0	-1	2.8	.
CCCCC(=O)N/N=C/c1c(O)n(CCCC)c(=S)[nH]c1=O	0.67	-2.5	-5	1.0	17	6.6	i
O=c1c2ccccc2nc(Cc2ccccc2)n1-c1cccc(O)c1	0.73	0.2	-21	.	.	5.4	i
O=[N+]([O-])c1ccc(N2CCCCCC2)c2nonc12	.	-85	-3	-16	-11	.	i
Cc1cccc(-n2c(O)c(C=NC34CN5CN(CN(C5)C3)C4)c(=O)[nH]c2=O)c1	0.72	2.3	0	2.1	-6	3.0	i
Cc1cc([N+](=O)[O-])c2ccccc2[n+]1[O-]	0.48*	2.1	8	1.2	-5	-0.6	.
CC(=O)c1ccc2c(c1)C1C(Cl)C(Sc3ccccc3[N+](=O)[O-])CC1C(c1ccccc1[N+](=O)[O-])N2 (stereo not given)	0.73	5.8	20	1.6	-22	10	.
C1CCC2CCCCC2C1 (stereo not given)	0.68	0.3	0	-0.8	8	0.7	i
COC(=O)C(O)(c1ccc(N(C)C(=O)OC(C)C)cc1)C(F)(F)F (stereo not given)	0.64	1.4	8	2.8	.	0.6	i
